Screening data: PubChem, ICCB-Longwood Screening Facility, Harvard Medical School
MenB inh – M. tuberculosis MenB inhibitors, primary screen, biochemical, absorbance. 1,4-dihydroxy-2-naphthoyl-CoA synthase (Mycobacterium tuberculosis (strain ATCC 25618 / …. MenB enzyme assay, absorbance read-out; some hits fall short of the stated cut. inhibition, %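 (about 12 µg/mL by stock and volumes)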. 100,000 tested, 0.43% active. AID 540299, 2011;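 active means mean of two replicates above 30%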;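 further: 0% = no compound and 100% = wells with inactive enzyme; the first replicate is given; strong numbers were not always called active; inactives centre near -10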
Target sequence (P9WNP5 whole entry, looked up): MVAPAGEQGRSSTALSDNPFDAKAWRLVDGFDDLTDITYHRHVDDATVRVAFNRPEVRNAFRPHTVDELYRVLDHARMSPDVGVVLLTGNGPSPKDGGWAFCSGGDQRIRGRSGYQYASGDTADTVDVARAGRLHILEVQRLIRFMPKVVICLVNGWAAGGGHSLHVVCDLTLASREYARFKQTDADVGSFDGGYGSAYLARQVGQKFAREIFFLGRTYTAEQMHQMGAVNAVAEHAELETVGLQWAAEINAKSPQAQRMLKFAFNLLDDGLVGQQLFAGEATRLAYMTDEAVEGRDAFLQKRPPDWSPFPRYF
Polio RdRp inh – poliovirus RdRp elongation inhibitors, primary screen, biochemical, fluorescence polarization, total intensity | % elongation, % (compound at 16.7 µg/mL) | AID 588519, 2011 | poliovirus polymerase elongation; hits give low values | 150,000 tested, 0.66% active; in the data active means % elongation below about 90%; further: some results filed as inactive read as strong as hits
MbtI inh – MbtI salicylate synthase inhibitors, primary screen, biochemical, fluorescence intensity. P9WFX0. purified MbtI enzyme, fluorescence intensity read-out. inhibition, %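 (about 17 µg/mL by stock and volumes)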. 100,000 tested, 0.89% active;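 active means above 50% in both replicates, above 80% if mildly self-fluorescent; inactive means the rest, strongly fluorescent compounds included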;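 further: 0% = mean of negative and 100% = mean of positive controls; one replicate is shown; some compounds called inactive have numbers as strong as hits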
Target sequence (P9WFX0 whole entry, looked up): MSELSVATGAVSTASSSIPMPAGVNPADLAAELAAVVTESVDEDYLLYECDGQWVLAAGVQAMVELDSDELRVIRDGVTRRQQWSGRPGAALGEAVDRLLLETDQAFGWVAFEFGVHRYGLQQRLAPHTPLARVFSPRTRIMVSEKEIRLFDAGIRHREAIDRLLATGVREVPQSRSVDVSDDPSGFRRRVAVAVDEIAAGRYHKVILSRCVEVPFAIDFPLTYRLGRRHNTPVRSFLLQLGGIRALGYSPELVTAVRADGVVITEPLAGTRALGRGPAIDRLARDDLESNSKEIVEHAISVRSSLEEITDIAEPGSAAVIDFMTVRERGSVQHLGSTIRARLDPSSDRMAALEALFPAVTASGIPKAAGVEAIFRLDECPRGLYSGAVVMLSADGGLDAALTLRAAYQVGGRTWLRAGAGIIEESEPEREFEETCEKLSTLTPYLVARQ
Polio RdRp inh intensity – further read-out of Polio RdRp inh, marked with its call; % elongation; measured here: total intensity read-out; formula for this scale not given here;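 total fluorescence in place of polarization; lower means less elongation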
* hit, by the source's call; nt = no result given.

A first look, 7 compounds:
SMILES | MenB inh | Polio RdRp inh | Polio RdRp inh intensity | MbtI inh
COc1ccc(-c2nn(C)c3sc(C(=O)NC(C)C)cc23)cc1OC | -14 | 100 | 101 | 97
Cc1cc(C)nc(NC(C(=O)O)C(C)C)n1 (configuration not stated) | 5 | 102 | 101 | 6
COc1ccc(OCC(=O)N2N=C3/C(=C/c4ccco4)CCCC3C2c2ccco2)cc1 (configuration not stated) | -30 | 103 | 108 | 3
COc1c[nH]n(C2CCCCC2)c(=O)c1=O | -12 | 100 | 104 | 15
CCOC(=O)c1cc2c(n(-c3ccc(OC)cc3)c1=O)CCCC2=O | -57 | 105 | 101 | 8
O=C1CC(C(=O)Nc2ccc(Cl)cc2)N=C(N2CCc3ccccc32)N1 (configuration not stated) | 23 | 100 | 103 | -5
Cc1c(CSC(=N)N)c(C)c(CSC(=N)N)c(C)c1CSC(=N)N | 19 | 92 | 92 | 2

The listing, from the start:
SMILES | MenB inh | Polio RdRp inh | Polio RdRp inh intensity | MbtI inh
COc1ccc(-c2nn(C)c3sc(C(=O)NC(C)C)cc23)cc1OC | -14 | 100 | 101 | 97
Cc1cc(C)nc(NC(C(=O)O)C(C)C)n1 (configuration not stated) | 5 | 102 | 101 | 6
COc1ccc(OCC(=O)N2N=C3/C(=C/c4ccco4)CCCC3C2c2ccco2)cc1 (configuration not stated) | -30 | 103 | 108 | 3
COc1c[nH]n(C2CCCCC2)c(=O)c1=O | -12 | 100 | 104 | 15
CCOC(=O)c1cc2c(n(-c3ccc(OC)cc3)c1=O)CCCC2=O | -57 | 105 | 101 | 8
O=C1CC(C(=O)Nc2ccc(Cl)cc2)N=C(N2CCc3ccccc32)N1 (configuration not stated) | 23 | 100 | 103 | -5
Cc1c(CSC(=N)N)c(C)c(CSC(=N)N)c(C)c1CSC(=N)N | 19 | 92 | 92 | 2
O=C(Cc1n[nH]c(=O)c2ccccc12)OC1CCOC1=O (configuration not stated) | -20 | 105 | 111 | 0
Cc1nc(N)sc1C(N)=O | 5 | 103 | 103 | 23
COc1ccc(Nc2c(-c3cc(Br)ccc3O)nc3cnccn23)cc1 | -27 | 100 | 101 | -2
COc1ccc2c(c1)OC1(C)CC2C(S(=O)(=O)c2ccccc2)C(=O)N1 (configuration not stated) | 5 | 101 | 100 | -10
Cc1cccc(NC(=O)CC(C)(C)C)c1 | -15 | 102 | 102 | -22
CC(NC(=S)N1CCc2ccccc2C1)C12CC3CC(CC(C3)C1)C2 (configuration not stated) | -33 | 101 | 102 | 20
Cc1ccc(NC(=O)Nc2ccc(C(C)(C)C)cc2)cc1 | -11 | 98 | 94 | nt
N#Cc1cccc(NC(=O)CNc2ccccc2Cl)c1 | -5 | 100 | 108 | -2
C=CCn1c(C)cc(C(=O)CSc2nc3ccccc3c(=O)n2CC=C)c1C | 7 | 99 | 102 | 0
CCN1C(=O)c2cccc3c(S(=O)(=O)NC(Cc4c[nH]c5ccccc45)C(=O)O)ccc1c23 (configuration not stated) | -43 | 98 | 92 | -10
Cc1cccc(C)c1NC(=O)CC1C(=O)N(Cc2ccccc2)C(C)c2nc3ccccc3n21 (configuration not stated) | 8 | 103 | 105 | -4
S=C1NCN(CC2CCCO2)CN1 (configuration not stated) | -2 | 97 | 97 | -6
O=C(NCCO)c1nnc(-c2ccc3c(c2)OCO3)o1 | -9 | 106 | 107 | -3
Cc1cc(NC2C3CC4CC(C3)CC2C4)n2ncnc2n1 (configuration not stated) | 17 | 101 | 102 | 2
COC(=O)/C(C#N)=C/c1ccccc1I | -12 | 102 | 98 | 3
COc1ccc(CSc2cccc3cccnc23)cc1 | nt | 105 | 110 | 33
Cc1cc2c(c(SCc3ccc(Cl)cc3)n1)C(=O)OC2 | -4 | 107 | 109 | nt
NC(=O)c1cc(N)ccc1N1CCCC1 | -41 | 104 | 102 | 11
Cc1nn(Cc2ccc(Cl)cc2)c(C)c1NC(=O)COCc1cc(-c2cccs2)on1 | -38 | 106 | 102 | 4
COc1ccc(-c2nnc(SCC(N)=O)n2C2CCCCC2)cc1OC | -4 | 102 | 101 | -6
CCC1(CC)Cc2ccccc2C(C2=C(O)CCCC2=O)=N1 | -48 | 99 | 100 | 16
CCN=C1S/C(=C\c2cn(CC(=O)Nc3cccc(C)c3)c3ccccc23)C(=O)N1CC | -6 | 103 | 99 | 7
COc1ccc(Cc2nnc(SCC(N)=O)n2Cc2ccccc2)cc1 | -10 | 101 | 104 | -14
CCc1c(SCC(=O)O)nc2ccccc2c1C | -20 | 103 | 103 | -6
CN(C(=O)C1CCCN(S(=O)(=O)c2cccc3nsnc23)C1)c1ccc(Br)cc1 (configuration not stated) | -8 | 101 | 103 | -4
CCn1c(=O)cc(OCC(=O)Nc2cccnc2)c2ccccc21 | -6 | 98 | 105 | -2
CCC1(C)Cc2ccccc2-c2c1c(=O)n(-c1ccc(C)cc1)c1nncn21 (configuration not stated) | -2 | 102 | 106 | -7
O=C(NCC(c1ccco1)N1CCCC1)c1ccc2ccccc2n1 (configuration not stated) | -10 | 102 | 107 | 14
CCC(=O)Nc1cccc(Oc2nc(C)cc(C)c2C#N)c1 | -23 | 108 | 102 | nt

Profiles, quoted from the list. Screens in order: MenB inh, Polio RdRp inh, Polio RdRp inh intensity, MbtI inh
COc1ccc(Cc2nnc(SCC(N)=O)n2Cc2ccccc2)cc1 as listed: -10, 101, 104, -14
CCc1c(SCC(=O)O)nc2ccccc2c1C as listed: -20, 103, 103, -6
CCC(=O)Nc1cccc(Oc2nc(C)cc(C)c2C#N)c1 as listed: -23, 108, 102, nt

(more compounds)
SMILES | MenB inh | Polio RdRp inh | Polio RdRp inh intensity | MbtI inh
CCCCN(CC)C(=O)c1cn(CC)c(=O)c2cc(OC)c(OC)cc12 | -6 | 101 | 106 | -12
C=CCn1c(SCC#N)nnc1-c1ccc(Br)cc1 | 6 | 99 | 110 | 5
O=C(NCCCc1ccccc1)C1c2ccccc2-c2ccccc21 | -71 | 105 | 99 | nt
CCOC(=O)c1c(C)oc2nc(CN3c4cccc5cccc(c45)S3(=O)=O)nc(N)c12 | -4 | 109 | 114 | -9
CC1CCCCN1C(=O)C12CC3CC(CC(C3)C1)C2 (configuration not stated) | -15 | 100 | 100 | -2
COc1ccc(NCc2nc(-c3ccc(C)cc3)no2)cc1OC | 7 | 101 | 101 | 6
CCCC1c2ccsc2CCN1C(=O)c1cc(OC)cc(OC)c1 (configuration not stated) | -27 | 105 | 119 | -5
O=C(NC1CC1)c1cc2n(n1)CCCN(Cc1ccccc1)C2=O | 0 | 101 | 103 | -6
N#Cc1cccc(NC(=O)/C=C/c2cccc3ccccc23)c1 | -17 | 105 | 105 | nt
CCC(Oc1ccccc1)C(=O)Nc1nncs1 (configuration not stated) | 0 | 103 | 107 | nt
Cc1ccccc1-n1nnnc1SCC(=O)N/N=C/c1ccccc1O | -90 | 104 | 108 | -10
Cc1ccccc1-c1noc(CCC(=O)NC(C)C)n1 | -10 | 99 | 103 | 10
Cc1nc(C(F)(F)F)ccc1C(=O)NN1CCOCC1 | -3 | 103 | 112 | -10
COc1ccc(NCC(=O)n2c(C)c(C)c3ccccc32)cc1 | nt | 102 | 109 | -7
O=C1c2ccccc2C(=O)N1CCc1nn[nH]n1 | -10 | 99 | 99 | -2
S=C(NC1CCCCC1)N1CCN(Cc2ccc3c(c2)OCO3)CC1 | -30 | 105 | 111 | nt
Cc1onc(-c2ccccc2)c1C(=O)Sc1ccc(C(F)(F)F)cn1 | -25 | 103 | 104 | 95*
O=C(c1ccccc1Cl)N1CCN(c2ccc(N3CCCCCC3)nn2)CC1 | -2 | 103 | 104 | -6
COC(=O)C1=C(C)NC2=C(C(=O)c3ccccc32)C1c1ccc(Br)o1 (configuration not stated) | -11 | 105 | 102 | 10
CC(=O)Nc1ccc(NC(=O)C(C)n2c(C)c3cnn(-c4ccccc4)c(=O)c3c2C)cc1 (configuration not stated) | 12 | 102 | 102 | 3
CC(C)c1ccccc1N=Cc1ccc2c(c1)OCO2 | nt | 101 | 101 | 2
COc1ccc(C(=O)N(CN2CCCC2=O)c2nccs2)cc1OC | -22 | 103 | 105 | 3
O=C(N/N=C1/CCS(=O)(=O)c2ccc(F)cc21)c1ccccn1 | 15 | 90* | 93* | -9
COc1ccc(-c2cc(=Nc3ccc(C)cc3C)c3cc(O)ccc3o2)cc1 | -31 | 103 | 98 | -29
Oc1ccc(C(=S)N2CCN(Cc3ccccc3)CC2)cc1 | -15 | 98 | 102 | 94*
O=C(O)CCN(Cc1ccco1)S(=O)(=O)c1cccc2nsnc12 | 6 | 101 | 104 | 14
CN(Cc1nnc(-c2ccc(Cl)cc2)o1)S(=O)(=O)c1ccc2ccccc2c1 | -21 | 104 | 113 | 0
O=C(O)c1nnc(Cl)c2ccccc12 | 0 | 101 | 99 | -1
CN1C(=O)c2ccccc2N2C(=O)CCC12C(=O)OCc1ccc(C#N)cc1 (configuration not stated) | -5 | 99 | 108 | 37
O=C1NC(=O)C2(OC(=O)C(=O)/C2=C(/O)c2ccccc2)C(=O)N1 | -4 | 98 | 95 | nt
CN(C)S(=O)(=O)c1ccc2oc(SCN3C(=O)c4ccccc4C3=O)nc2c1 | -16 | 101 | 106 | 0
Cc1cccc(C(=O)NCCCn2ccnc2)c1 | -20 | 102 | 108 | 4
Cc1cc(C)[n+]2c(-c3ccccc3)csc2n1 | -4 | 103 | 109 | nt
CCOC(=O)C/C(C)=N/c1ccnn1-c1ccccc1 | -32 | 101 | 99 | -9
COc1ccc(N2CCN(CCNc3nc4ccccc4n4c(C)nnc34)CC2)cc1 | 7 | 102 | 102 | 18
CCOC(=O)Cn1nnnc1CN(CCc1ccc(OC)c(OC)c1)Cc1cc2c(C)ccc(C)c2[nH]c1=O | -10 | 101 | 100 | 6
CCOC(=O)C1=C(N)OC2=C(C(=O)CCC2)C1c1ccc(OC)cc1 (configuration not stated) | -5 | 108 | 104 | nt
COc1ccc(Nc2nc3ccc(C)cc3nc2Nc2ccc(OC)cc2)cc1 | -38 | 98 | 96 | 0
CCOC(=O)C(C)Sc1ncnc2c1nnn2-c1ccc(OC)cc1 (configuration not stated) | -3 | 101 | 105 | 15
CN1CCN(C(=O)C2C3C=CC(C3)C2C(=O)O)CC1 (configuration not stated) | 1 | 100 | 99 | -2
Cc1cccc(N(C2C=CS(=O)(=O)C2)S(=O)(=O)c2ccccc2)c1 (configuration not stated) | -14 | 104 | 107 | -1
Cc1ccc(S(=O)(=O)N=S(Cc2ccccc2)Cc2ccccc2)cc1 | -5 | 112 | 110 | 0
S=C(SCc1ncon1)N1CCSCC1 | -6 | 109 | 123 | 41
C=CCn1c(SCC(=O)N(C)C2CCS(=O)(=O)C2)nc2ccccc2c1=O (configuration not stated) | -24 | 108 | 110 | -4
Nn1c(=O)c2ccccc2n2c(SCC(=O)N(c3ccccc3)c3ccccc3)nnc12 | 11 | 102 | 104 | 1
OCCNc1ncnc2sc3c(c12)CCCC3 | -1 | 104 | 95 | 2
O=C(CSc1ccccn1)NCC(=O)c1ccccc1 | -4 | 100 | 97 | nt
COc1ccc(SCC(=O)N(c2ccccc2)C2CCS(=O)(=O)C2)cc1 (configuration not stated) | -19 | 104 | 101 | -12
CS/C(N)=N/C(N)=Nc1ccc(Cl)cc1 | 7 | 103 | 114 | -7
Cc1ccc(NC(=O)CSc2ncn(-c3ccccc3)n2)cc1 | -8 | 99 | 109 | 8
Cc1cc(C)c(N(CC(O)Cn2c3ccccc3c3ccccc32)S(C)(=O)=O)c(C)c1 (configuration not stated) | -12 | 98 | 103 | 44
Cc1cccc(N(C)S(=O)(=O)c2c(C(=O)N3CCCCC3)c(C)n(C)c2C)c1 | -16 | 101 | 101 | -9
COc1ccc2c(c1)c(CC(=O)Nc1nnc(-c3ccccc3)o1)c(C)n2C(=O)c1ccc(Cl)cc1 | -29 | 106 | 106 | 0
Cn1c(C(C#N)C(=O)c2ccc(Cl)c(S(=O)(=O)N3CCCCCC3)c2)nc2ccccc21 (configuration not stated) | -18 | 153 | 186 | 1
Cc1ccc(C(=O)N/C(=C/c2ccco2)C(=O)Nc2nccs2)cc1 | -34 | 102 | 100 | 7
Cc1cc(=O)oc2cc(NC(=S)NCCN3CCCCC3)ccc12 | -16 | 100 | 102 | 110
Cc1ccc(C(=O)NCCc2ccccc2)cc1 | -15 | 105 | 113 | nt
COC(=O)c1cc(S(=O)(=O)Nc2ccc(OC)cc2)c[nH]1 | 5 | 101 | 100 | -5
CN(CC(=O)NCc1ccco1)S(=O)(=O)c1ccc2c(c1)c(=O)n(C)c(=O)n2C | -1 | 101 | 103 | -4
CCC(CC)C(=O)Nc1nnc(C(C)(C)C)s1 | -23 | 105 | 99 | -5
Next structures follow.
SMILES | MenB inh | Polio RdRp inh | Polio RdRp inh intensity | MbtI inh
O=C1CCC(C(=O)OCC(=O)Nc2cccc(Oc3ccccc3)c2)=NN1 | -12 | 103 | 104 | -6
Cn1nnnc1SCC(=O)N1CCNC1=O | 4 | 102 | 104 | -6
O=C(Cc1c[nH]c2ccccc12)NCC1CCN(c2ccc(S(=O)(=O)N3CCCC3)cc2)CC1 | 11 | 102 | 102 | 10
Nc1nnc(CCN2CCCC2)s1 | -15 | 102 | 102 | 2
CCOc1ccc(-n2c(CN(CC)CC)nc3ccccc3c2=O)cc1 | -16 | 104 | 101 | -2
O=C1NCC(O)=C1C=Nc1ccccc1O | -166 | 103 | 108 | 12
O=C(Nc1ccc2c(c1)OCCO2)c1ccc(Br)o1 | -12 | 103 | 103 | 4
CCOc1cc(-c2nc(-c3cc4cc(C)ccc4nc3OC)no2)cc(OCC)c1OCC | 13 | 102 | 99 | -1
